Source: PubChem BioAssay
Vif A3G – HIV-1 Vif–A3G interaction blockers – biochemical, TR-FRET, GST-Vif 1-94, biotin-A3G peptide, dose response retest, primary screen (AID 1117319) | 260,000 compounds, 0.57% hits | one-dose inhibition, %; IC50 in µM for titrated hits | TR-FRET GST-Vif / biotin-A3G peptide binding; higher % means a stronger effect; test concentration not given here; strong numbers were not always called active;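 active = above the screen mean plus three standard deviations and confirmed in dose response; inconclusive = results disagree or hit not tested in dose response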;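 also: Vif residues 1-94 fused to GST binding biotinylated APOBEC3G peptide 110-148; 0% = full assay without inhibitor and 100% = GST in place of GST-Vif; retest series ran down from 100 µM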
T cruzi repl – blocks replication of Trypanosoma cruzi | T. cruzi beta-gal in NIH3T3, luminescence, 90 h | inhibition, % (concentration not given with the values) | 300,000 compounds, 1.4% hits | AID 1885;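 active = mean inhibition across valid replicates above about 55%, limit read from the data; inconclusive = mean below that limit but half or more replicates reach it; inactive = mean below it, under half of replicates reach it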;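 also: signal also drops with host cell toxicity which is not excluded here; 0% = plate median of DMSO wells and 100% = zero luminescence signal; higher percent means less beta-gal luminescence so fewer parasites; stock transfer was 50 nL into about 50 µL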
LANA-H2B inh – blocks KSHV LANA binding to histone H2A/H2B | Q9QR71 | cell-free LANA-H2A/H2B peptide, fluorescence polarization | inhibition, % (no concentration beside the values) | 320,000 compounds, 0.6% hits; in the data active = inhibition mostly above about 10%, no sharp cut-off; inactive = mostly below about 6.7%;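 also: stock transfer was 7.5 nL into about 10 µL; 0% = median of vehicle wells and 100% = median of positive control wells; one replicate is shown; the record names a cut of 25% in any replicate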
Target sequence (Q9QR71 whole entry, looked up): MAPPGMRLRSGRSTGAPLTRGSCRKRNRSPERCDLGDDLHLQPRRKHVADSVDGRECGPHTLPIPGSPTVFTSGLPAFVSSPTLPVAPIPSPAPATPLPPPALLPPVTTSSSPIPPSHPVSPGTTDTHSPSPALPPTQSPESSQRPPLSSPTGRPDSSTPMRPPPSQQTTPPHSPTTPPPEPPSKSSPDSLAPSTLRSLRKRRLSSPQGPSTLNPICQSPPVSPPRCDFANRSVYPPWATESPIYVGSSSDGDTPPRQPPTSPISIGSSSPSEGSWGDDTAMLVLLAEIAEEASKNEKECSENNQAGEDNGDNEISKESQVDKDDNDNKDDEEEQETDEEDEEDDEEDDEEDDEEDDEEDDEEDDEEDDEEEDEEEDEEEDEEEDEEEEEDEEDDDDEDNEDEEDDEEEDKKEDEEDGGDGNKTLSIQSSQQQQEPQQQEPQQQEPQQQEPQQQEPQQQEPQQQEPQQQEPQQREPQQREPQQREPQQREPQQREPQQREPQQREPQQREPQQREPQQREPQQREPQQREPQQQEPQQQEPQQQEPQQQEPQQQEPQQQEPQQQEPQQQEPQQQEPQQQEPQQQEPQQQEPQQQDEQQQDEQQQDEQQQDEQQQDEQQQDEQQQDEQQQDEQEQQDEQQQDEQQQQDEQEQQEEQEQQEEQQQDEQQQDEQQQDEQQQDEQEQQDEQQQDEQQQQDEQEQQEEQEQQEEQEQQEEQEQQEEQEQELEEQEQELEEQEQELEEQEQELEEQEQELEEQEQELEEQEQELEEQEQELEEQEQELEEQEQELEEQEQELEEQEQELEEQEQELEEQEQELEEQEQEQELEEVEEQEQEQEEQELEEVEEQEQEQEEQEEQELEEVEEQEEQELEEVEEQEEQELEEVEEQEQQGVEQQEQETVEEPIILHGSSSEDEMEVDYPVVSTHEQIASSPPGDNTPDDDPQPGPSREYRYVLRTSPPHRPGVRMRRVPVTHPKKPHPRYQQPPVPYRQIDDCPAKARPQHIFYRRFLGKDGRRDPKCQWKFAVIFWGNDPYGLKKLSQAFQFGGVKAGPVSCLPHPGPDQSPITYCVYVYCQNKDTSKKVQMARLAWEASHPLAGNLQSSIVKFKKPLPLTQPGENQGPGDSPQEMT
RanGTP-Impb inh – disruptors of Ran-importin-beta complex formation – biochemical, FRET, CFP-Ran, YFP-importin-beta, homogeneous, primary screen | cell-free CFP-Ran/YFP-importin-beta FRET ratio | inhibition, % (test concentration not listed) | 300,000 compounds, 1.1% hits;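 active = most replicates above 15%; inconclusive = exactly half above 15%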;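 also: 0% = DMSO wells and 100% = Ran loaded with GDP instead of GTP; wells of about 40 µL received 100 nL stock; the first replicate is given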
A1 inh – inhibitors of the anti-apoptotic protein A1, read as caspase activation | 330,000 compounds, 0.066% hits | MEF A1-2A-BIM cells, Caspase-Glo 3/7 luminescence, 3 h; percent of clofoctol response, vehicle zero | caspase activation, % (concentration not given with the values) | AID 2462;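 active = over half of replicate activation scores above 10%, or exactly half above 10 with the replicate mean above 10; inconclusive = replicate mean below 10 yet half the replicates above 10; inactive = over half of replicates below 10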;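 also: wells of about 30 µL received 50 nL stock; many hits fall short of the cut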
Beta apoptosis – blocks beta cell apoptosis | protection from apoptosis, % (no concentration beside the values) | INS-1E cytokine-induced death, ATP luminescence, 48 h; percent of positive-control rescue, neutral wells zero | 300,000 compounds, 0.8% hits;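 active = all replicates at 75% or more, or half of them and the mean; inconclusive = half reach 75% but not the mean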;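 also: 0% = cytokine-treated negative control wells and 100% = positive control rescue; higher means more ATP so stronger rescue from cytokine killing; wells of about 40 µL received 100 nL stock; the first replicate is given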
MLL AF4-AF9 inh – blocks AF4 peptide binding to human AF9. P42568. AlphaScreen, biotin-AF4 peptide binding to FLAG-AF9. inhibition, % at 10 µM. 350,000 compounds, 0.47% hits. AID 651704;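 active = every replicate reaching a set inhibition limit, whatever the replicate mean, cut at about 25% in these data; inconclusive = mean inhibition reaches that limit but some replicates miss it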;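 also: 0% = plate neutral control median and 100% = total signal loss; the record names both 10 and 1 µM as test concentration; the first replicate is given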
Calb FLC – affects C. albicans growth with fluconazole; C. albicans CaCi-2 (fluconazole-resistant clinical isolate) + fluconazole, Alamar Blue growth, 48 h; growth inhibition, % (concentration not given with the values); 300,000 compounds, 0.57% hits; AID 1979;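 active = most replicates above 75%; inconclusive = exactly half above 75%; inactive = most below 75%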;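 also: all wells also contain fluconazole at 8 µg/ml as a sub-toxic cotreatment; 0% = median of DMSO wells and 100% = median of geldanamycin control wells; wells of about 8 µL received 7.5 nL stock; the first replicate is given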
Active calls of the source: *; ? = inconclusive; · = no result given; & = joins results of further samples.

structure	Vif A3G	T cruzi repl	LANA-H2B inh	RanGTP-Impb inh	A1 inh	Beta apoptosis	MLL AF4-AF9 inh	Calb FLC
O=C(CSc1nc2ccccc2o1)N1c2ccccc2Sc2ccccc21	·	28	1.4	7.9	0.0	10	-0.7	6
Cc1cccc(C)c1NC(=O)CCCSc1nnc(-c2ccc(Cl)cc2)n1-c1ccccc1	·	16	-1.7	3.3	0.1	10	-1.8	-3
CCCCCOc1ccc(N2C(=O)C3C4C=CC(C3C2=O)N(C)C4=O)cc1 (stereo not given)	7%	12	-2.5	-1.5	0.7	-2	·	5
CCOC(=O)c1c(-c2ccccc2)oc2ccc(OC)cc12	-1%	9	-0.4	1.8	0.7	0	·	3
Cc1ccc(C(CNC(=O)Nc2ccccc2)N2CCN(C)CC2)cc1 (stereo not given)	·	20	-2.5	0.8	-0.1	-4	-0.2	8
Cc1c(CCC(=O)O)c(=O)n2c([nH]c3ccccc32)c1C#N	9%	5	2.7	?	1.0	-4	·	4
O=c1cc(NC2CCCCC2)[nH]c(=O)[nH]1	·	·	-5.5	1.4	0.5	-9	3.3	-1
O=C(Nc1ccc(S(=O)(=O)N2CCCC2)cc1)c1cccnc1	1%	6	-3.8	2.2	0.8	1	·	-3
CCCNC(=O)C(=O)NCC(c1ccc2c(c1)OCO2)N1CCN(c2ccc(F)cc2)CC1 (stereo not given)	·	4	-0.6	0.6	-1.0	1	3.1	1
CCOC(=O)C1(CCOc2ccccc2)CCN(CC2CC2)CC1	·	-3	-3.0	5.5	0.9	-7	2.5	8
O=c1[nH]cc(NCCc2ccccc2)c(=O)[nH]1	-1%	-5	-6.6	43*	-1.0	·	-1.9	-3
CCCCOc1ccc(CONS(=O)(=O)c2ccc(NC(C)=O)cc2)cc1Cl	·	-8	0.2	?	0.0	40	-0.9	-47
CCN(C(=O)CSc1nnc(-c2ccncc2)n1C)C1CCS(=O)(=O)C1 (stereo not given)	-2%	-10	-1.2	1.5	0.8	-1	·	-6
CCOc1cc(S(=O)(=O)NC2CC(C)(C)NC(C)(C)C2)ccc1Cl	0%	-16	-6.2	1.0	-0.9	1	2.6	-6
CCCc1c(C(=O)N/N=C/c2ccc(OCc3ccccc3)c(OC)c2)nnn1-c1nonc1N	3%	5	-1.2	1.5	-0.3	10	-1.4	-11
CC(C)NC(=S)NN=C1c2ccccc2-c2ccccc21	·	6	2.6	-5.8	0.5	13	1.5	-7
Cc1cccc(-n2c(=O)c3c(n4cnnc24)-c2ccccc2CC32CCCCC2)c1	-4%	26	-3.0	?	0.3	-5	·	-11
O=C(O)CC(Cc1ccc(Cl)cc1)C(=O)Nc1ccc([N+](=O)[O-])cc1 (stereo not given)	·	-2	-2.7	5.5	-0.8	-1	·	-14
COc1ccc(/C=N/Nc2ccccc2C(=O)O)cc1	-6%	-12	2.2	-3.6	-15	13	-0.5	6
COc1cc2c(cc1OC)C(C)N(C(=O)c1sccc1C)CC2 (stereo not given)	·	23	0.8	0.5	0.2	-4	-2.4	-13
C=CCNCC#CCOc1ccc(OC)cc1	?	7	-2.6	-2.1	?	-2	·	-3
COc1ccc(-n2cc(-c3ccccc3)c3c(NCCOCCO)ncnc32)cc1	0%	4	1.9	-3.2	1.1	·	0.7	6
CCN(CC)C(=O)Cn1cc(C(=O)C(=O)N2CC=C(c3ccccc3)CC2)c2ccccc21	-7%	·	1.4	·	-0.1	-5	-0.8	12
Cc1cc2nc(/N=C(\N)NC(=O)N3c4ccccc4Sc4ccccc43)nc(C)c2cc1C	-14%&-3%	·	3.5	·	?	2	1.3	·
COc1ccc2nc(C)cc(N3CCN(c4ccccc4)CC3)c2c1	·	14	5.6	-2.0	-0.7	3	-0.8	27
Cc1nc(N(C)Cc2ccccc2)c2nnn(Cc3ccccc3)c2n1	0%	29	-2.3	-2.2	0.7	7	·	-10
Cc1ccc(NC(=O)CCn2cccc2)cc1	8%	-4	-1.8	0.0	0.6	·	·	-10
CC(C)Cn1c(N)c(C(=O)COC(=O)CC23CC4CC(CC(C4)C2)C3)c(=O)n(C)c1=O	3%	21	2.6	2.9	-0.4	105*	·	2
Cc1cc(OC2CCCCC2)nc(NCc2ccccc2)n1	?	2	-0.4	5.9	0.7	·	-0.2	-6
CCCn1nc2cc(C(=O)NCCc3ccc(C)cc3)ccc2c1OCC	-11%	0	1.2	1.9	-1.0	0	-1.2	12
Cn1ccc(C(=O)N/N=C/c2ccncc2)n1	·	-9	·	-0.7	·	·	-1.4	-13
O=C(COC(=O)c1ccc([N+](=O)[O-])s1)Nc1ccc(F)cc1	-1%	·	-0.2	·	1.4	3	2.0	·
CC(=O)N1CCSc2ccc(S(=O)(=O)NCc3ccccc3)cc21	?	2	-3.2	4.5	-1.6	-3	1.8	50
COc1ccc(-c2nc3cc(NC(=S)NC(=O)Cc4ccccc4)ccc3o2)cc1	·	15	3.2	3.3	-0.5	2	·	4
CC1SC(=NC(=O)c2ccco2)NC1=O (stereo not given)	1%	-18	1.9	-3.8	-0.6	3	·	-8
CSc1ccccc1C(=O)NCCSc1ccc(C)cc1	·	-2	-1.0	1.4	-0.1	-2	0.1	14
COc1cc(/C(C)=N/N2CCN(Cc3ccc(C)cc3)CC2)ccc1O	·	12	-0.7	1.3	-0.1	-15	0.1	-1
CC(=O)c1cccc(NC(=O)c2ccc(NC(=O)CCS(=O)(=O)c3cccs3)cc2)c1	·	-10	-5.5	-0.5	0.8	·	1.2	-1
CC1CN(C(=S)NC(=O)c2ccc([N+](=O)[O-])cc2)CC(C)O1 (stereo not given)	-4%	-12	-5.4	?	0.2	-5	·	-7
CC1CCCC(n2cnc3cc(C(=O)O)ccc32)C1C (stereo not given)	-8%	-8	0.4	2.8	1.6	6	-25	-5
CSc1nsc(SCC(=O)Nc2c(C)n(C)n(-c3ccccc3)c2=O)n1	23%	-12	-0.2	0.5	-0.4	2	·	4
CCOc1ccc(NC(=O)C2CCN(S(=O)(=O)c3c(C)n[nH]c3C)CC2)cc1	-3%	-1	0.6	6.5	-0.2	3	·	-7
Cc1cc(C(=O)COC(=O)c2ccc(Br)o2)c(C)n1C	0%	-6	-1.1	2.0	-1.1	4	9.0	-3
Cc1ccccc1CCNC(=O)C1CCN(S(=O)(=O)c2ccc(-n3cnnn3)cc2)CC1	-1%	12	·	7.9	·	·	·	-1
Cc1cccc(N2CCN(C3=NC(=O)C(Cc4ccccc4)S3)CC2)c1 (stereo not given)	14%	8	-8.2	3.7	-0.1	4	·	21
CC(C)CC(C(=O)Oc1ccc2c3c(c(=O)oc2c1)CCC3)N1C(=O)c2ccccc2C1=O (stereo not given)	-1%	-5	·	-0.7	·	·	·	-9
Cc1ccc(CCSc2ccc(C(C)C)cc2)cn1	·	13	-0.2	1.0	1.1	-8	-1.2	3
CCOC(=O)C1(Cc2ccc(Cl)cc2)CCN(C(=O)c2cnc(C)cn2)CC1	5%	-9	0.4	2.0	0.7	-3	-2.7	-2
Cc1cc2cc3c(cc2nc1SCc1ccccn1)OCCO3	·	-9	-0.7	1.5	0.4	5	3.9	0
O=C(COC(=O)[C@H](Cc1c[nH]c2ccccc12)NC(=O)c1cccs1)NCc1ccccc1	-1%	1	-0.6	?	1.0	-1	?	0
O=C(COc1ccc(S(=O)(=O)N2CCOCC2)cc1Cl)NC1CC1	-9%	-7	-1.2	3.3	0.5	-1	-5.5	3
CCOC(=O)N1CCC(NC(=O)C2CCN(S(=O)(=O)c3ccc4c(c3)oc(=O)n4C)CC2)CC1	?	-16	5.8	-1.5	1.6	3	-1.2	1
Cc1ccc(Cl)cc1NC(=S)N(CCCN1CCOCC1)Cc1ccccn1	·	6	1.0	-1.3	-0.7	-7	·	2
CCN(CC)c1ccc(/C=N/NC(=O)CNC(=O)c2ccc3c(c2)OCCO3)cc1	·	17	8.1	-0.5	0.1	4	-0.1	1
Cc1ccc(NC(=O)CSc2nnc(CNC(=O)c3c(F)cccc3Cl)o2)cc1	4%	-5	0.2	-1.8	0.8	-4	·	0
N#Cc1ccc(C(=O)N2CCN(S(=O)(=O)c3ccc(Cl)s3)CC2)cc1	·	·	-0.7	·	0.0	-3	-2.3	·
Cc1cc(C)c2cc(CN(Cc3cccs3)Cc3nnnn3CC3CCCO3)c(=O)[nH]c2c1 (stereo not given)	10%	?	6.0	-1.3	0.4	0	-3.1	1
Cc1ccc(NC(=O)COC(=O)CCc2ccc(S(=O)(=O)N3CCOCC3)cc2)cc1F	-12%	-1	-3.5	-1.3	2.3	-11	-0.2	32
N#Cc1ccc(C(=O)NC(=S)N2CCN(C=O)CC2)cc1	-1%	·	-0.1	·	0.0	2	-3.2	·
Cc1ccc(NC(=O)CSc2nn3c(=O)c(C)nnc3s2)cc1Cl	·	-2	0.3	0.1	-0.5	·	-2.1	-1

Remaining list, next part
structure	Vif A3G	T cruzi repl	LANA-H2B inh	RanGTP-Impb inh	A1 inh	Beta apoptosis	MLL AF4-AF9 inh	Calb FLC
O=C(NN1C(=O)NC2(CCCCC2)C1=O)c1cc(F)cc(F)c1	0%	·	6.0	·	0.4	2	-2.5	·
CCOC(=O)C(Cc1c(F)cccc1F)(NC(C)=O)C(=O)OCC	?	-1	4.0	1.5	1.1	-4	·	-2
Cc1ccc(N2C(=O)CN(Cc3sccc3C)C2=S)cc1C	8%	9	·	-1.7	0.5	-3	·	-1
O=C(c1ccccc1)c1ccc(Oc2ncccn2)cc1	-1%	-7	-4.3	-3.7	-0.5	-2	·	-8
COc1cc(CCC(=O)OCC(=O)Nc2ncc(Cl)cc2Cl)cc(OC)c1OC	?	-7	0.8	-0.3	0.0	0	·	-7
COc1cccc(C2C(C#N)=C(N)N(N(C)C)C3=C2C(=O)CC(C)(C)C3)c1 (stereo not given)	·	29	2.3	0.2	0.3	0	-0.6	10
Cc1cc(C)nc(NS(=O)(=O)c2ccc(NC(=O)c3ccco3)cc2)n1	6%	-7	1.0	-2.9	0.0	-5	·	-4
Cc1cc(=O)n(C2CCS(=O)(=O)C2)[nH]1 (stereo not given)	30%	-8	4.1	·	-1.0	-2	-1.3	-7
